AF4-AF9 inh: inhibitors of human MLL-AF4/AF9 interaction; hit rate 0.47% among 350,000; AlphaScreen, biotin-AF4 peptide binding to FLAG-AF9; inhibition, % at 10 µM;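 active means every replicate reaching a set inhibition limit, whatever the replicate mean, cut at about 25% in these data; inconclusive means mean inhibition reaches that limit but some replicates miss it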;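 further: 0% = plate neutral control median and 100% = total signal loss; the record names both 10 and 1 µM as test concentration; the first replicate is given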
Target sequence (P42568 whole entry, looked up): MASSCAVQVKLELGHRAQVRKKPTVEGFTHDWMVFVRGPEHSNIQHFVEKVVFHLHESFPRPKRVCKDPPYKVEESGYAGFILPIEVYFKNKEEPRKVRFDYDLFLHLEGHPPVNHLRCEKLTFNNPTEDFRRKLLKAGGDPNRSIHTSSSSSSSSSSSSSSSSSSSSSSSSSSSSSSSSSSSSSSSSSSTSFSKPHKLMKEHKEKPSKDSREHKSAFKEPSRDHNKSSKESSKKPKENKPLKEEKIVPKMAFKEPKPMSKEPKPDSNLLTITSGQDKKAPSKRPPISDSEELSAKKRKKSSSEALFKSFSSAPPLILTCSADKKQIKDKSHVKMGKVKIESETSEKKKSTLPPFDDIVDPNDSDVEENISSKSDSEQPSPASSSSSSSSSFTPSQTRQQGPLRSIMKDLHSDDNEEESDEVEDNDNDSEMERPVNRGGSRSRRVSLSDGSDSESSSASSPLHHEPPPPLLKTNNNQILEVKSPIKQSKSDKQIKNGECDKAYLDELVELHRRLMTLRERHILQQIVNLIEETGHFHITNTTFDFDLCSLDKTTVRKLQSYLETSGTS
rRNA inh HTS: selective bacterial rRNA inhibition in E. coli; E. coli WT GFP vs humanized-ribosome RFP mutants, fluorescence, 24 h; active compounds read low; DMSO median 0, no signal -100; hit rate 1.6% among 350,000; AID 720706; GFP signal change (wild-type ribosome), % (no concentration beside the values);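 active means significant combined selectivity score with lowered wild-type GFP, culture density cut under 30%, mutant RFP and density less affected; inactive means any of these conditions unmet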; further: one replicate is shown; some compounds called inactive have numbers as strong as hits
Calb FLC: affects C. albicans growth with fluconazole. C. albicans CaCi-2 (fluconazole-resistant clinical isolate) + fluconazole, Alamar Blue growth, 48 h. growth inhibition, % (test concentration not listed). hit rate 0.57% among 300,000;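 active means most replicates above 75%; inconclusive means exactly half above 75%; inactive means most below 75%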;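 further: all wells also contain fluconazole at 8 µg/ml as a sub-toxic cotreatment; 0% = median of DMSO wells and 100% = median of geldanamycin control wells; wells of about 8 µL received 7.5 nL stock; the first replicate is given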
RanGTP-Impb inh: disruptors of Ran-importin-beta complex formation – biochemical, FRET, CFP-Ran, YFP-importin-beta, homogeneous, primary screen. cell-free CFP-Ran/YFP-importin-beta FRET ratio. inhibition, % (test concentration not listed). hit rate 1.1% among 300,000;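 active means most replicates above 15%; inconclusive means exactly half above 15%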;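 further: 0% = DMSO wells and 100% = Ran loaded with GDP instead of GTP; wells of about 40 µL received 100 nL stock; the first replicate is given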
T cruzi inh: blocks replication of Trypanosoma cruzi; T. cruzi beta-gal in NIH3T3, luminescence, 90 h; inhibition, % (test concentration not listed); hit rate 1.4% among 300,000;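 active means mean inhibition across valid replicates above about 55%, limit read from the data; inconclusive means mean below that limit but half or more replicates reach it; inactive means mean below it, under half of replicates reach it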;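 further: signal also drops with host cell toxicity which is not excluded here; 0% = plate median of DMSO wells and 100% = zero luminescence signal; higher percent means less beta-gal luminescence so fewer parasites; stock transfer was 50 nL into about 50 µL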
ALR H2O2 inh: human ALR oxidase inhibition via reduced H2O2. purified ALR, DTT oxidation, H2O2 HRP-luminol luminescence. hit rate 3.8% among 290,000. P55789. inhibition, % (test concentration not listed);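 active means mean and each replicate at 75% or more; inconclusive means only one of the two met; inactive means neither met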;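 further: stock transfer was 7.5 nL into about 7.5 µL; 0% = neutral wells and 100% = wells with inactivated enzyme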
Target sequence (P55789 whole entry, looked up): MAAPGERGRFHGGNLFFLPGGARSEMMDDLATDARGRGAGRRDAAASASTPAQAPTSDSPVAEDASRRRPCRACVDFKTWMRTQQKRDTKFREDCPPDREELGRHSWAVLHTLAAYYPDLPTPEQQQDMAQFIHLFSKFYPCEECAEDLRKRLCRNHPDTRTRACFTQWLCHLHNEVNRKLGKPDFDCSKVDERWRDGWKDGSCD
Beta apoptosis: beta cell apoptosis inhibition | protection from apoptosis, % (no concentration beside the values) | hit rate 0.8% among 300,000 | AID 435005 | INS-1E cytokine-induced death, ATP luminescence, 48 h; percent of positive-control rescue, neutral wells zero;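 active means all replicates at 75% or more, or half of them and the mean; inconclusive means half reach 75% but not the mean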;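 further: 0% = cytokine-treated negative control wells and 100% = positive control rescue; higher means more ATP so stronger rescue from cytokine killing; wells of about 40 µL received 100 nL stock; the first replicate is given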
FGF22 binding: FGF22 (human) thermal shift binding; Q9HCT0; recombinant FGF22 thermal shift, SYPRO orange fluorescence; percent of sucrose octasulfate shift, DMSO zero; calls only at 9.99 µM; hit rate 1.5% among 340,000;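 active means melting point raised past a set limit in the mean and every replicate; inconclusive means no clear call; three in four hits are not shown here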
Target sequence (Q9HCT0 whole entry, looked up): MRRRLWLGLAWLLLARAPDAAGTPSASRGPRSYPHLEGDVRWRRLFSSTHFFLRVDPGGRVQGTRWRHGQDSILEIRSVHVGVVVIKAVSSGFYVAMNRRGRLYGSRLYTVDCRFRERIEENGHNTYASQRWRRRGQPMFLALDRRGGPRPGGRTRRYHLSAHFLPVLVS
rRNA inh HTS OD600: further read-out of rRNA inh HTS, marked with its call; OD600 change, %; measured here: OD600 growth;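 optical density of the mix in the first replicate; 0 = DMSO median and -100 = no signal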
rRNA inh HTS RFP: second read-out of rRNA inh HTS, no call of its own (marks repeat the call); RFP signal change, %; measured here: RFP humanized mutant strains;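 first replicate; 0 = DMSO median and -100 = no signal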
Active calls of the source: *. Only part of the results is shown; the hit share may differ from the screen's.

For CC1CCN(CC(=O)Nc2cc(C(F)(F)F)ccc2Cl)CC1 the results were AF4-AF9 inh 14, rRNA inh HTS 6, Calb FLC 10, RanGTP-Impb inh 0.4, T cruzi inh -1, ALR H2O2 inh -2, Beta apoptosis 3, FGF22 binding inactive, rRNA inh HTS OD600 -5 and rRNA inh HTS RFP -6.5.
`COc1ccc(C(C(=O)NC(C)(C)C)N(CCc2ccc(OC)c(OC)c2)C(=O)CCC(=O)Nc2cc(C)on2)cc1` (centres undefined) gave AF4-AF9 inh 2.5, Calb FLC 4, RanGTP-Impb inh 1.1, T cruzi inh -12, ALR H2O2 inh -1 and Beta apoptosis 5.
For CCCn1nc(NC(=O)CC(C)C)c2cc3ccccc3nc21 the results were Calb FLC -1, RanGTP-Impb inh 27*, T cruzi inh -8, ALR H2O2 inh -9 and Beta apoptosis 2.
For NC(N)=NS(=O)(=O)c1ccc(NC(=S)NC(=O)Cc2ccc(Cl)cc2)cc1 the results were AF4-AF9 inh 8.4, rRNA inh HTS -21, Calb FLC -1, RanGTP-Impb inh 1.8, T cruzi inh -9, ALR H2O2 inh 12, FGF22 binding inactive, rRNA inh HTS OD600 -25 and rRNA inh HTS RFP 8.2.
Screening O=C(CN1C(=O)CSC1=O)N1CCCC(Nc2ccc(F)cc2)C1 (centres undefined) returned AF4-AF9 inh -1.1, rRNA inh HTS -2, Calb FLC 3, RanGTP-Impb inh 0.5, T cruzi inh -5, ALR H2O2 inh 99*, Beta apoptosis -1, FGF22 binding inactive, rRNA inh HTS OD600 1 and rRNA inh HTS RFP -2.9.
Screening O=C(Cc1cccc2ccccc12)Nc1c(F)cccc1F returned AF4-AF9 inh -1.2, rRNA inh HTS 2, Calb FLC -6, RanGTP-Impb inh 1.2, T cruzi inh -4, ALR H2O2 inh -6, Beta apoptosis 1, FGF22 binding inactive, rRNA inh HTS OD600 13 and rRNA inh HTS RFP -1.1.
Screening COc1ccc(/C=N/NC(=O)CSc2n[nH]c(=O)[nH]c2=O)cc1 returned AF4-AF9 inh -0.3, rRNA inh HTS 12, Calb FLC -5, RanGTP-Impb inh -3.9, T cruzi inh -16, Beta apoptosis -2, FGF22 binding inactive, rRNA inh HTS OD600 17 and rRNA inh HTS RFP -4.8.
Screening c1cnc2c(c1)ncc1cscc12 returned AF4-AF9 inh -1.2, rRNA inh HTS 8, Calb FLC 8, RanGTP-Impb inh -2.2, T cruzi inh -5, ALR H2O2 inh -3, Beta apoptosis -1, FGF22 binding inactive, rRNA inh HTS OD600 8 and rRNA inh HTS RFP -1.5.
Screening Cn1ncc(Cl)c1C(=O)Nc1cc(C(F)(F)F)ccc1F returned Calb FLC -6, RanGTP-Impb inh -2.3, T cruzi inh -1, ALR H2O2 inh -12 and Beta apoptosis -2.
Screening COc1cc(C(=O)n2cnc3ccccc32)c([N+](=O)[O-])cc1OC returned AF4-AF9 inh -4.0, rRNA inh HTS 10, Calb FLC 7, RanGTP-Impb inh 6.3, T cruzi inh -13, Beta apoptosis 0, FGF22 binding inactive, rRNA inh HTS OD600 9 and rRNA inh HTS RFP 0.2.
Screening CCCCOc1ccc(C(=O)NC)cc1 returned Calb FLC 12, RanGTP-Impb inh 2.4, T cruzi inh -7, ALR H2O2 inh 2 and Beta apoptosis 1.
For CC(C)CC(=O)Nc1cccc(-c2nc3ccccc3[nH]2)c1 the results were AF4-AF9 inh -1.0, rRNA inh HTS -16, Calb FLC -5, RanGTP-Impb inh 2.8, T cruzi inh -10, Beta apoptosis -4, FGF22 binding inactive, rRNA inh HTS OD600 -10 and rRNA inh HTS RFP -3.3.
For O=C(Cc1ccc(S(=O)(=O)N2CCOCC2)s1)N1CCN(S(=O)(=O)c2ccc(Cl)cc2)CC1 the results were AF4-AF9 inh -4.4, ALR H2O2 inh -7, Beta apoptosis -3 and FGF22 binding inactive.
For Cc1ccc(NC(=O)C(=O)NN)cc1 the results were AF4-AF9 inh -8.1, rRNA inh HTS 7, Calb FLC -12, RanGTP-Impb inh -2.3, T cruzi inh 18, ALR H2O2 inh 24, Beta apoptosis 1, FGF22 binding inactive, rRNA inh HTS OD600 4 and rRNA inh HTS RFP 0.5.
Screening CCOC(=O)C1CCN(S(=O)(=O)c2ccc3c(c2)CC(C)N3C(=O)C2CCC2)CC1 (centres undefined) returned AF4-AF9 inh 0.4, rRNA inh HTS 2, Calb FLC -5, RanGTP-Impb inh -2.5, T cruzi inh 5, ALR H2O2 inh -4, Beta apoptosis 0, FGF22 binding inactive, rRNA inh HTS OD600 -28 and rRNA inh HTS RFP 0.6.

Among those listed so far, two have two or more sulfur atoms.
For NC(N)=NS(=O)(=O)c1ccc(NC(=S)NC(=O)Cc2ccc(Cl)cc2)cc1 the results were AF4-AF9 inh 8.4, rRNA inh HTS -21, Calb FLC -1, RanGTP-Impb inh 1.8, T cruzi inh -9, ALR H2O2 inh 12, FGF22 binding inactive, rRNA inh HTS OD600 -25 and rRNA inh HTS RFP 8.2.
For O=C(Cc1ccc(S(=O)(=O)N2CCOCC2)s1)N1CCN(S(=O)(=O)c2ccc(Cl)cc2)CC1 the results were AF4-AF9 inh -4.4, ALR H2O2 inh -7, Beta apoptosis -3 and FGF22 binding inactive.

Going on with the list:
COc1ccc(C(C(=O)NC(C)C)N(C(=O)CCC(=O)Nc2nccs2)c2ccccc2F)cc1 (centres undefined) was read as AF4-AF9 inh 0.4, rRNA inh HTS 2, Calb FLC -1, RanGTP-Impb inh 0.9, T cruzi inh 10, ALR H2O2 inh -3, Beta apoptosis 1, FGF22 binding inactive, rRNA inh HTS OD600 0 and rRNA inh HTS RFP 0.7.
`CN1CCN(C2CCCCC2NS(=O)(=O)c2ccccc2)CC1` (centres undefined) gave AF4-AF9 inh 0.0, rRNA inh HTS -1, Calb FLC 4, RanGTP-Impb inh 2.2, T cruzi inh 12, ALR H2O2 inh -3, Beta apoptosis -4, FGF22 binding inactive, rRNA inh HTS OD600 3 and rRNA inh HTS RFP -1.5.
Screening O=C(N=C1SC2CS(=O)(=O)CC2N1Cc1ccccc1)C1CCCCC1 (centres undefined) returned AF4-AF9 inh -2.3, rRNA inh HTS 7, Calb FLC -6, RanGTP-Impb inh 3.4, T cruzi inh 12, ALR H2O2 inh 0, Beta apoptosis -2, FGF22 binding inactive, rRNA inh HTS OD600 4 and rRNA inh HTS RFP -0.7.
For Cc1nc2nc(CSc3nnc(C)s3)cc(=O)n2[nH]1 the results were AF4-AF9 inh 1.8, rRNA inh HTS 2, Calb FLC 1, RanGTP-Impb inh 1.1, T cruzi inh 1, ALR H2O2 inh -8, FGF22 binding inactive, rRNA inh HTS OD600 9 and rRNA inh HTS RFP -1.7.
Screening COc1ccc(NC(=O)C/C(C)=N/NC(=O)COc2ccc(OC)cc2)cc1 returned AF4-AF9 inh 1.3, rRNA inh HTS 0, Calb FLC 2, RanGTP-Impb inh -0.8, T cruzi inh -3, ALR H2O2 inh 1, Beta apoptosis 3, FGF22 binding inactive, rRNA inh HTS OD600 -3 and rRNA inh HTS RFP 1.0.
`Cn1ncc(C#N)c1/N=C/N1CCCC1` gave Calb FLC -12, RanGTP-Impb inh inconclusive, T cruzi inh 0, ALR H2O2 inh 0 and Beta apoptosis -8.
Screening O=C(CSc1nc2ccccc2c(=O)n1-c1ccc(F)c(Cl)c1)Nc1cccc(S(=O)(=O)N2CCOCC2)c1 returned AF4-AF9 inh -2.7, rRNA inh HTS 2, Calb FLC -5, RanGTP-Impb inh 8.5, T cruzi inh 50, ALR H2O2 inh 98*, Beta apoptosis 6, FGF22 binding inactive, rRNA inh HTS OD600 -6 and rRNA inh HTS RFP 4.0.
Screening Cn1cnnc1Sc1ccc(C(=O)OCC(=O)Nc2ccccc2)cc1[N+](=O)[O-] returned AF4-AF9 inh 5.7, rRNA inh HTS -1, Calb FLC 21, RanGTP-Impb inh -4.1, T cruzi inh -3, ALR H2O2 inh -23, Beta apoptosis -1, FGF22 binding inactive, rRNA inh HTS OD600 3 and rRNA inh HTS RFP -1.6.
Cc1cc(C)cc(C(=O)OCC(=O)Nc2ncccn2)c1 was read as AF4-AF9 inh -0.2, rRNA inh HTS 0, ALR H2O2 inh -4, Beta apoptosis 6, FGF22 binding inactive, rRNA inh HTS OD600 2 and rRNA inh HTS RFP 0.7.
`Cc1ccc(S(=O)(=O)N2CC=C(C(=O)NCc3ccccc3)CC2)cc1` gave AF4-AF9 inh -5.1, rRNA inh HTS -5, Calb FLC -5, RanGTP-Impb inh -0.4, T cruzi inh 7, ALR H2O2 inh 12, FGF22 binding inactive, rRNA inh HTS OD600 1 and rRNA inh HTS RFP -2.1.
For CSc1nc(O)c(N=Nc2ccc(F)cc2F)c(=O)[nH]1 the results were AF4-AF9 inh 0.5, rRNA inh HTS -9, Calb FLC 1, RanGTP-Impb inh -1.8, T cruzi inh 3, Beta apoptosis 1, FGF22 binding inactive, rRNA inh HTS OD600 10 and rRNA inh HTS RFP 5.5.
Screening Cc1ccccc1N/N=C/c1ccc(N2CCOCC2)cc1 returned Calb FLC -21, RanGTP-Impb inh 1.6, T cruzi inh -10, ALR H2O2 inh 14 and Beta apoptosis 25.
Screening COc1ccccc1CN(CC(=O)NCC1CCCO1)C(=O)CNS(=O)(=O)c1ccc(C)cc1 (centres undefined) returned Calb FLC 17, RanGTP-Impb inh 5.0, T cruzi inh -4, ALR H2O2 inh 0 and Beta apoptosis 3.
Screening Cc1ccc(-c2cccc(NC(=O)C3C4C=CC(C4)C3C(=O)O)c2)o1 (centres undefined) returned AF4-AF9 inh -73, rRNA inh HTS 2, Calb FLC -6, RanGTP-Impb inh 2.5, T cruzi inh -8, ALR H2O2 inh 2, FGF22 binding inactive, rRNA inh HTS OD600 1 and rRNA inh HTS RFP 8.4.
O=C(NNC(=S)Nc1ccc(Br)cc1)c1cccnc1 was read as AF4-AF9 inh 3.1, rRNA inh HTS -1, Calb FLC -4, RanGTP-Impb inh 2.2, T cruzi inh -4, ALR H2O2 inh 70, Beta apoptosis -1, FGF22 binding inactive, rRNA inh HTS OD600 3 and rRNA inh HTS RFP 1.2.
For COCc1[nH]nc2c1C(c1sccc1C)C(C#N)=C(N)O2 (centres undefined) the results were rRNA inh HTS -11, Calb FLC 2, RanGTP-Impb inh 1.0, T cruzi inh -24, ALR H2O2 inh 10, Beta apoptosis -3, rRNA inh HTS OD600 -14 and rRNA inh HTS RFP -2.7.
`Cc1cccc(CCNS(=O)(=O)c2ccc(S(=O)(=O)NC3CCCC3)cc2)c1` gave Calb FLC -11, RanGTP-Impb inh inconclusive, T cruzi inh 0, ALR H2O2 inh -17 and Beta apoptosis -3.
For Cc1ccc2nc(SCC(=O)c3c[nH]c4ccccc34)[nH]c2c1 the results were AF4-AF9 inh 1.5, rRNA inh HTS -49, Calb FLC 6, RanGTP-Impb inh 1.7, T cruzi inh 3, ALR H2O2 inh -33, Beta apoptosis 1, FGF22 binding inactive, rRNA inh HTS OD600 -65 and rRNA inh HTS RFP -12.

Assay outcomes as filed in PubChem.
